TRPML1 agonist: agonists of human TRPML1 channel; Q9GZU1; TRPML1-expressing cells, Ca2+ dye fluorescence, FDSS; host cell line not named in the record; reference of the full effect not given here; activation, % (no concentration beside the values); hit rate 0.12% among 410,000; AID 624414; in the data active = activation above about 50%; inconclusive = about 30% to 50%; inactive = below about 30%; note: 0% is about no effect; the text of the record puts the active cut at 80%
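Agonist activity was taken from a 110 s kinetic Ca2+ dye read on the FDSS after pinning compounds onto TRPML1-DL cells. The cells were seeded at 1,500/well with Tet inducer, incubated about 16 h, then dye-loaded at room temperature.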
PINK1 modulator: PINK1 expression modulation. AID 624263. hit rate 0.2% among 410,000. PINK1 immunofluorescence, high-content cytometry, 24 h. Potency, µM (titrated, usually from 76.6 µM), for inactives: top-dose activation (PINK1 increase), usual class: activators; active = well fitted activation curve with a large enough effect; inconclusive = small, poorly fitted or top-dose-only effect; inactive = flat fitted curve, though single readings scatter; cell line not stated here;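 note: potency is the fitted concentration of half-maximal effect; % of control where 0% means no effect; nearly all actives have a fitted effect of over 65% in size; a mitochondrial uncoupler was the plate control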
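Fluorescence from anti-PINK1 antibody, together with nuclear and cell stains, was scanned on a laser-scanning cytometer. Before staining, stable-line cells were incubated 24 hours with compounds at 5 concentrations; primary antibody 12 h at 10 degrees C.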
TRPV1 PAM: human TRPV1 potentiation | TRPV1-expressing cells, Fluo-8 calcium influx, capsaicin EC20 potentiation; host cell line not named in the record; control for the full effect not named in the record | hit rate 0.02% among 320,000 | potentiation, % at 8.33 µM | Q8NER1; active means potentiation above 80%; inconclusive means 30% to 80%; inactive means below 30%; note: 0% is about no effect
Target sequence (Q8NER1 whole entry, looked up): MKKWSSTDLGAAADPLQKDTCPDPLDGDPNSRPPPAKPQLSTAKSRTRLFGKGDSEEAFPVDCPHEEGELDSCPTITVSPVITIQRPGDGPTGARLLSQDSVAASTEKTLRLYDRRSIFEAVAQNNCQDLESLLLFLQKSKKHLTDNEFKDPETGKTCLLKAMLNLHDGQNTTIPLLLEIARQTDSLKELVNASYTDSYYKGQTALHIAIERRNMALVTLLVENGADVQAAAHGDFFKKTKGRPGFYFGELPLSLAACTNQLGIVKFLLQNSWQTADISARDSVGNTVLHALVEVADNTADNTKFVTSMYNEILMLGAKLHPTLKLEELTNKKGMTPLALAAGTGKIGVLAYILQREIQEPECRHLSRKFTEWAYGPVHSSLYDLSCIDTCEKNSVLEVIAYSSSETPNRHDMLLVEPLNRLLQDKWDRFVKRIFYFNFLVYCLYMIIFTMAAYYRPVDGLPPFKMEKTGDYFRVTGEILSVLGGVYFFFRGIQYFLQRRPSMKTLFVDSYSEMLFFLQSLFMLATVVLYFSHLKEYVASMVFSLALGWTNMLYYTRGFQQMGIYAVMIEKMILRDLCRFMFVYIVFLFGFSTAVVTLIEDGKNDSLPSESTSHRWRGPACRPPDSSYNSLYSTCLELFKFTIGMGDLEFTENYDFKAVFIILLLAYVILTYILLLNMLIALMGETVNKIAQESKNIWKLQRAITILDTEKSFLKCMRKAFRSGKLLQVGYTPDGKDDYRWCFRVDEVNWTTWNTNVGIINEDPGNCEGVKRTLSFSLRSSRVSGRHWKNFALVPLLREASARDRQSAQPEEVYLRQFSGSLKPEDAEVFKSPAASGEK
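Cells expressing TRPV1 were dye-loaded with Fluo-8 and read kinetically: 10 s baseline, 3 min after compound (agonist portion), then 2 min after EC20 capsaicin (allosteric enhancer portion). Calcium-bound dye fluorescence at 480/520 nm.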
Sfp PPTase inh: inhibitors of Bacillus subtilis Sfp phosphopantetheinyl transferase. Q9F4F7. Biochemical Sfp PPTase activity, qHTS. Potency, µM, inactives show max response, negative = inhibition, most hits filed as inhibitors. hit rate 3.5% among 310,000; active = well fitted inhibition curve with a large enough effect; inconclusive = small, poorly fitted or top-dose-only effect, or another doubt; inactive = no such curve, though single readings can be large or run the other way;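 note: the enzyme is Sfp with the accession as filed and its product quenches rhodamine fluorescence; potency is the fitted concentration of half-maximal effect; 0% = enzyme reaction without inhibitor and -100% = no enzyme wells; top concentration of the series not given in the record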
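Compounds were incubated with enzyme (final 15 nM) for 15 min at room temperature before substrate addition started the reaction. Fluorescence at 525 nm excitation, 598 nm emission was recorded immediately and after 30 minutes.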
ClpP mod: qHTS Assay for Activators of ClpP | purified B. subtilis ClpP, FRET peptide cleavage, 20 min | Potency, µM (doses to about 57.5 µM), for inactives: at the highest dose activity change, negative = active | hit rate 1.9% among 340,000; active = well fitted falling curve with a large enough effect; inconclusive = small, poorly fitted or top-dose-only effect; inactive = no such curve, though single readings can be large or run the other way; note: potency is the fitted concentration of half-maximal effect; the source files actives as falling curves though it sought activators and does not explain the sign; nearly all actives have a fitted effect of over 65% in size; many hits overshoot -100%
Target sequence (P80244 whole entry, looked up): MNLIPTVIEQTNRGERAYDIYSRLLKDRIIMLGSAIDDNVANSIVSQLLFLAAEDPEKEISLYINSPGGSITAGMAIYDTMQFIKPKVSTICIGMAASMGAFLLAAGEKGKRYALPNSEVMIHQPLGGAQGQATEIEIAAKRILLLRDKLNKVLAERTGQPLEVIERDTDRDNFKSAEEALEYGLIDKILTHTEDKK
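ClpP 10 microg/mL final, pH 8 Tris/KCl buffer with BSA, glycerol, Tween-20; compound pinned in; FRET-FV substrate; RT 20 min; Ex320/Em430; ΔFRET vs ADEP 5.8 microM, DMSO, no enzyme.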
TRPML1 blocker: human mucolipin-1 channel inhibition; Q9GZU1; TRPML1-inducible cells, Ca2+ dye fluorescence, FDSS; stronger effect = lower value; inhibition of EC80 agonist-evoked calcium signal; activity change, negative = inhibition, % (concentration not given with the values); hit rate 0.02% among 390,000; in the data active means activity change below about -50%; inconclusive means about -30% to -50%; inactive means above about -30%;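 note: stimulus is agonist 54-4 at its EC80 concentration; % is set by controls: 0 for no effect and ±100 for the full control effect; compound concentration not given in the record; the text of the record puts the active cut at -80%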
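TRPML1-DL cells, Tet-induced overnight (~16 h, 37 °C) at 1,500 cells/well, were loaded with Ca8 no-wash dye plus quencher for 45-90 min at room temperature. Compounds were pinned during FDSS kinetic reading; agonist 54-4 at EC80 (4 uM final) then added.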
Menin-MLL FL inh: displaces fluorescein MLL peptide from human menin | 290,000 tested, under 10 active | Fluorescence polarization, fluorescein-MLL peptide displacement from menin | FP activity change, % at 61.4 µM | AID 1766; inconclusive = falling polarisation curve, or a change in total fluorescence; inactive = total fluorescence flat and polarisation flat or rising; no compound was filed as active; the % refers to the polarisation; negative = inhibition;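 note: % of control where 0% means no effect; inhibitors lower the polarisation; unlabelled MLL peptide was the positive control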
* hit, by the source's call; u = inconclusive; x = no result given; [ ] = remark or other dose. Compounds as they come; overall some 4.4% were active at least once.

Compound | TRPML1 agonist | PINK1 modulator | TRPV1 PAM | Sfp PPTase inh | ClpP mod | TRPML1 blocker | Menin-MLL FL inh
O=C(CN1C(=O)/C(=C/c2ccc(F)cc2)SC1=S)NC1CCS(=O)(=O)C1 (configuration not stated) | -0.6 | 1.7% | 3 | -12% | -1.2% | 6 | -1.3
COc1ccc(N=C2NC(=O)C(CO)(CO)S2)cc1 | x | -0.5% | 9 | 10% | 0.8% | x | -2.3
CCCCN1CCc2c([nH]c3ccccc23)C1=O | 0.0 | 0.1% | 2 | 16% | 20µM* | 4 | 3.4
Cc1c(Cl)cccc1NC(=O)CNC(=O)C1CCN(C(=O)Nc2ccccc2)CC1 | -0.1 | -0.6% | -3 | x | 0.8% | -7 | x
Cc1ccc(S(=O)(=O)N2C[C@H]3[C@H]4C(=O)N(c5ccccc5)C(=O)[C@H]4CC(=O)[C@H]3[C@@H]2c2ccccc2F)cc1 | -0.1 | -0.4% | x | x | 2.6% | x | x
O=C(/C=C/[C@H]1O[C@@H](n2ccc(=O)[nH]c2=O)[C@H](O)[C@@H]1O)NCc1cccs1 | 0.2 | 0.0% | x | x | 1.4% | -9 | x
COCCn1c(SCC(=O)Nc2cccc(S(N)(=O)=O)c2)nc2ccccc21 | -0.7 | 3.3% | 3 | 9% | -2.8% | 10 | 1.7
COc1cc(OC)cc(C(=O)N[C@H](C(=O)Nc2cccc(S(=O)(=O)N3CCCC3)c2)C(C)C)c1 | 3.0 | 1.7% | -6 | 4% | x | 5 | -0.9
COc1ccc(-n2c(Cc3cccn3C)nnc2SCC(=O)Nc2ccc(C)c(Cl)c2)cc1 | 2.3 | -1.7% | 22 | -6% | 1.9% | 3 | 6.6
COc1ccc(-c2[nH]c(-c3ccc(C)cc3)nc2SCC(=O)Nc2nccs2)cc1 | 2.7 | 1.9% | -4 | 10% | -7.3% | -5 | 1.7
Nc1cccc(-c2nc3ccc(N)cc3s2)c1 | 2.3 | 0.8% | x | 3% | 14µM* | 6 | 0.9
CCOC(=O)C1CCCN(C(=O)c2cc(Nc3ccc(OC)cc3OC)nc3ccccc23)C1 (configuration not stated) | 0.8 | -1.6% | 1 | -10% | 1.3% | -8 | 3.4
CN(C)C(=O)c1ccc(Oc2ccc(C(=O)N(C)C)cc2)cc1 | 3.2 | 6.7%[38.3 µM] | -5 | 1% | 0.2% | 19 | 1.9
COc1cccc(-c2csc(N3CCN(CC(=O)NNC(=O)c4ccc(Cl)cc4)CC3)n2)c1 | -0.1 | -2.5%[38.3 µM] | -12 | -4% | -1.4% | -6 | -0.7
CCc1cccc(NC(=O)C(Cc2ccccc2)NS(=O)(=O)c2cccs2)c1 (configuration not stated) | 4.2 | -0.5% | x | x | -18% | 0 | x
O=C(CN1C(=O)COc2ccccc21)Nc1ccc(N2CCOCC2)cc1 | -0.3 | -0.9% | 3 | 13% | -1.6% | 6 | 2.1
Cc1ccsc1/C=N/NC(=O)c1ccco1 | 0.6 | 0.8% | -4 | 10% | 2.2% | 2 | -0.2
Cc1cc(C)cc(N2C(=O)CS(=O)(=O)C23C(=O)N(Cc2ccc(F)cc2)c2ccc(C)cc23)c1 (configuration not stated) | 0.5 | -4.8% | x | x | 0.7% | -4 | x
CC(C)NC(=O)COc1ccc(S(=O)(=O)N2CCOCC2)cc1 | 0.7 | 1.0% | 3 | 9% | -0.2% | 24 | 0.9
O=C(Nc1cc(Sc2ccccn2)cc([N+](=O)[O-])c1)c1cccc(F)c1 | 2.5 | 14% | 8 | 15% | 1.0% | 15 | 1.9
Cc1ccc2cc(CN(Cc3nnnn3C3CCCC3)C3CCCCC3)c(=O)[nH]c2c1C | 0.2 | -4.5%[38.3 µM] | 9 | 12% | -2.3% | -18 | -2.6
Fc1ccc(C2=Nn3c(Cc4ccccc4)nnc3SC2)cc1 | 0.5 | x | -9 | 4% | 0.7% | 18 | 0.0
COc1ccc(C(C)=O)cc1COC(=O)c1ccc(N)c([N+](=O)[O-])c1 | -0.3 | 4.1% | 16 | -20% | 0.4% | -8 | -0.9
COC(=O)CC1C(=O)NC2CCCCC2N1C(=O)c1ccccc1 (configuration not stated) | -0.7 | -1.1% | 4 | 6% | -0.6% | 1 | 1.2
CSc1nc(-c2ccccc2)c(-c2ccccc2)[nH]1 | 1.4 | 2.0% | u | 11% | 16µM* | -1 | -0.5
CC1CCc2c(sc3ncn(N)c(=N)c23)C1 (configuration not stated) | x | 0.4% | -15 | -12% | -3.6% | x | 1.8
O=C1NC2(CCCCCC2)C(=O)N1Cc1ccccc1Br | -0.4 | 3.2% | -7 | -14% | x | -10 | 2.1
CCOC(=O)c1cc(-c2ccccc2)sc1NC(=O)c1ccc(OC)cc1 | -0.7 | 4.0% | -16 | 14µM* | -6.4% | -12 | 1.5
Cc1ccc2cccc(Oc3cnccn3)c2n1 | 0.0 | 3.4% | -23 | 14% | -1.5% | -5 | u
CNC(=O)CSc1nnc(-c2ccco2)n1-c1cccc(C)c1C | -0.1 | -0.3% | -4 | 19% | 2.3% | -6 | 3.0
Cc1ccccc1OC(C)c1nc(-c2ccccc2)no1 (configuration not stated) | -0.8 | 0.1% | u | -3% | 2.9% | -7 | 2.4
Cc1c(NCc2ccccc2O)c(=O)n(-c2ccccc2)n1C | x | 1.1% | -2 | -4% | 0.1% | x | 3.3
O=C(Nc1ccccc1)c1cnc(N2CCCCC2)c2ccccc12 | 0.0 | 2.1% | x | x | -8.9% | 8 | x
Cc1ccc(S(=O)(=O)N(C)C)cc1NC(=O)CSc1nnc(C2CC2)n1C1CC1 | 2.3 | -0.5% | 2 | x | -1.5% | 13 | x
CCNc1ccc(S(=O)(=O)C(F)(F)F)cc1NC(=O)C12CCC(CC1)C2 | 8.4 | x | -6 | 12% | 0.8% | -7 | -1.5
O=c1cc(-c2ccccc2)n(S(=O)(=O)c2ccccc2)o1 | -0.2 | 0.4% | -6 | u | -1.9% | 2 | 16
CC(C)COc1ccc(C(=S)N2CCCC2)cc1 | 2.7 | -1.2% | x | x | x | 42 | x
O=C(CCCOc1ccc(Cl)cc1Cl)NCC1CCCO1 (configuration not stated) | -0.9 | 0.9% | -1 | 6% | -0.8% | -9 | 1.8
C=CCNC(=O)/C(C#N)=C/c1c(N2CCN(c3ccccc3)CC2)nc2c(C)cccn2c1=O | -1.1 | u | 2 | 19% | -5.7% | -5 | -4.4
COc1cc(C(=O)NC(=S)Nc2ccc(NC(=O)c3ccco3)cc2)cc(OC)c1OC | 1.8 | 4.5% | -1 | -28% | -3.7% | 2 | 7.2
COc1ccccc1NC(=O)/C(=N/OCc1ccc(F)cc1)C(C)=O | 0.6 | 2.2% | 6 | 13% | x | -21 | 1.8
CC(C)CCOc1ccc(NC(=O)C2OC3OC(C)(C)OC3C3OC(C)(C)OC23)cc1 (configuration not stated) | -1.2 | 10% | -15 | 16% | -2.0% | 1 | 2.0
COc1ccc2oc(=O)c(C(=O)N3c4ccccc4CC3C)cc2c1 (configuration not stated) | -0.4 | 12%[38.3 µM] | -1 | 14% | 0.8% | -9 | 4.1
Cc1ccccc1C(=O)Nc1ccc(N(C)C)c2ccccc12 | -0.6 | 1.7% | 2 | 10% | x | -15 | 5.5
O=C(Cc1ccccc1F)OCC(=O)N1CCc2ccccc21 | 2.5 | -0.1% | 0 | 12% | x | -8 | 1.4
O=C(CN(C(=O)CCC(=O)Nc1nccs1)c1ccc(F)cc1)NCc1ccccc1 | -0.6 | 1.8% | -2 | 25% | x | 0 | x
Cc1ccc(C(=O)NCCc2c[nH]c3ccccc23)c(C)c1 | -0.3 | 1.4% | 11 | 1% | x | -18 | x
Cc1nnc(N2CCC(C(=O)NC3CCCCC3)CC2)c2nn(-c3ccc(Cl)cc3)c(C)c12 | 0.3 | 1.1% | x | x | -14% | 4 | x
COc1ccc(NC(=O)CN2CCN(c3c(C)cc(C)cc3C)CC2)cc1 | 2.0 | 0.9% | -4 | u | -1.9% | 1 | 1.5
C[C@H](CO)N1C[C@H](C)[C@@H](CN(C)C(=O)NC2CCCCC2)Oc2ccc(NC(=O)CCC(F)(F)F)cc2C1=O | -0.2 | -1.5% | x | x | -1.2% | -4 | x
COc1ccccc1N1CCN(CC(=O)Nc2ccc(S(=O)(=O)N3CCCCCC3)cc2)CC1 | -0.7 | -1.6% | 13 | x | -2.2% | 28 | x
O=C1CC2C(=O)NCCN2C(=NC(=O)c2ccccc2)N1 (configuration not stated) | 1.2 | 0.6% | 5 | -7% | -0.3% | -13 | 3.4
Nc1nc2ncccc2cc1C(=O)NC1CCCCC1 | -0.3 | 1.8% | x | x | 4.6% | x | x
CCCOc1ccc(-c2nnn(CC(=O)N3CCCCC3)n2)cc1 | 0.2 | 1.2% | -27 | 5% | 1.1% | -1 | 1.7
COc1ccc(C(=O)Nc2scc(-c3ccc(Cl)cc3Cl)c2C(N)=O)cc1 | -1.2 | 0.0% | -2 | -3% | 28µM* | 31 | 5.0
COc1cc(C)cc2oc(=O)c(CC(=O)NCc3cccc(Cl)c3)c(C)c12 | -1.5 | 12% | x | x | 4.7% | -5 | x
O=C(COC(=O)c1ccc2c(c1)OCCO2)NCc1ccccc1Cl | 1.8 | 13% | x | x | x | 6 | x
CCCn1c(SCC(=O)N(C)CC(=O)Nc2ccc(Cl)cc2)n[nH]c1=O | -0.2 | 2.1% | -1 | x | -0.5% | 5 | x
CN(C)C(=O)c1cnc(Sc2ncc(C(F)(F)F)cc2Cl)n1C | -0.5 | 2.2% | 9 | -2% | 0.6% | -4 | 1.0
O=C(CN1CCOCC1)Nc1cccc(C(=O)Nc2cccc(C(F)(F)F)c2)c1 | -0.5 | 0.3% | -12 | 1% | -1.7% | 24 | 0.8
COc1ccc(N(CC(=O)NC2CCCC2)C(=O)Cn2nnc(-c3ccc(C)o3)n2)cc1 | -0.2 | 1.0% | 22 | 29% | x | 14 | 3.9

Complete entries as entered above:
Listed for COc1ccc(C(=O)Nc2scc(-c3ccc(Cl)cc3Cl)c2C(N)=O)cc1 = TRPML1 agonist: -1.2; PINK1 modulator: 0.0%; TRPV1 PAM: -2; Sfp PPTase inh: -3%; ClpP mod: 28µM*; TRPML1 blocker: 31; Menin-MLL FL inh: 5.0
Listed for Cc1nnc(N2CCC(C(=O)NC3CCCCC3)CC2)c2nn(-c3ccc(Cl)cc3)c(C)c12 = TRPML1 agonist: 0.3; PINK1 modulator: 1.1%; TRPV1 PAM: x; Sfp PPTase inh: x; ClpP mod: -14%; TRPML1 blocker: 4; Menin-MLL FL inh: x

Compound activity from PubChem.
